Bioassay records (PubChem BioAssay)
FPR binder: ligands of human FPR, also counter-screen for FPRL1 ligands; P21462; FPR-expressing cells, fluorescent ligand binding, flow cytometry; inhibition, %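 (tested at 6.7 µM)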; actives 0.74% (n = 24,000);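 also: 0% = buffer wells and 100% = receptor blocker peptide wells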
Target sequence (P21462 whole entry, looked up): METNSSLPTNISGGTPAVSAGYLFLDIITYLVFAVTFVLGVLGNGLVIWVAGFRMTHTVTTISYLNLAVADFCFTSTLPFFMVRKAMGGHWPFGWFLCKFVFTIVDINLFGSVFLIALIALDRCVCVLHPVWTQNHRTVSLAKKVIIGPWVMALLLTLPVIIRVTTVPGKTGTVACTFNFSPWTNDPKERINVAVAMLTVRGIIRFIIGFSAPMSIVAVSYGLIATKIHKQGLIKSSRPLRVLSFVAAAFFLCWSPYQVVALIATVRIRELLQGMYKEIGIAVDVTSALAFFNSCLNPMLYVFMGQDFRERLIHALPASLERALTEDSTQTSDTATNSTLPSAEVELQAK
VCAM-1 up imaging: enhancers of VCAM-1 display on endothelial cells, imaging, high-content imaging, pooled HUVEC, TNFa stimulus (AID 457) | actives 0.2% (n = 10,000) | calls only | Pooled HUVEC, TNFa-induced VCAM-1 immunofluorescence imaging; hits of this screen are not shown here;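 active = a top-ranked rise in VCAM-1 staining upheld on image or statistical review; inactive = the rest, including candidates rejected on review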;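 also: compounds tested at 5 µM in the well; cells exposed to compound for 24 hours before fixing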
VCAM-1 imaging: suppression of endothelial VCAM-1 upregulation – imaging, high-content imaging, pooled HUVEC, TNFa stimulus (AID 456); one-dose inhibition, % at 5 µM; IC50 in µM for titrated hits; HUVEC TNFa-induced VCAM-1 surface expression, immunofluorescence imaging; numbers were filed only for top-ranked candidate wells; actives 0.2% (n = 10,000);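 active = top tenth filtered wells with inhibition above zero that passed visual or statistical confirmation; inactive = the rest, including hits rejected on review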;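 also: 0% = stimulated vehicle wells and 100% = unstimulated cells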
VCAM-1 inhibition: inhibitors of TNFa-induced VCAM-1 surface display, cell-based, plate reader, pooled HUVEC, TNFa stimulus (AID 454). HUVEC TNFa-induced VCAM-1 surface immunofluorescence, plate reader; numbers were filed only for top-ranked candidate wells. inhibition, % at 5 µM. actives 0.2% (n = 10,000);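 active = compound among top-ranked inhibitors of TNF-induced VCAM-1 adhesion protein staining, with the hit upheld by image or statistical review; inactive = the rest, including hits rejected on review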;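 also: 0% = TNFa with vehicle and 100% = cells without TNFa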
FPRL1 binder: human FPRL1 ligand, with FPR counter-screen; FPRL1-expressing cells, fluorescent ligand binding inhibition, flow cytometry; inhibition, %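 (tested at 6.7 µM)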; actives 0.3% (n = 24,000);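 also: 0% = buffer alone and 100% = receptor blocker peptide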
Target sequence (P25090 whole entry, looked up): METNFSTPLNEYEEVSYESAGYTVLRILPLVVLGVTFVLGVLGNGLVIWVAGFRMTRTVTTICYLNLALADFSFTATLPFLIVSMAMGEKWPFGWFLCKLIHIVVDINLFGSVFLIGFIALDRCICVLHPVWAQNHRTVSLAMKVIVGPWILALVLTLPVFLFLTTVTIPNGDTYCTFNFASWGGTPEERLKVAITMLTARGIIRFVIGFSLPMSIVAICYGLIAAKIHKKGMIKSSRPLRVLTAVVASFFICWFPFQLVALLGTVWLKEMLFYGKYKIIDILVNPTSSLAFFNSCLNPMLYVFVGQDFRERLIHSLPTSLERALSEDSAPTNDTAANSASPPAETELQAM
Starred values were filed as active, the others as inactive; i = inactive; . = no result given.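 The calls were made as follows, unless noted: active = mean above 30%; inconclusive = self-fluorescent; inactive = the rest.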 Some of the compounds tested, so the mix of outcomes need not match the whole.

SMILES,FPR binder,VCAM-1 up imaging,VCAM-1 imaging,VCAM-1 inhibition,FPRL1 binder
CCOC(=O)N1CCN(C(=O)CSc2nnc(-c3ccccc3OC)o2)CC1,1,.,.,.,3
CCn1nc(C(=O)O)c(=O)c2cc3c(cc21)OCO3,0,i,i,i,-2
Cc1cc(C(F)(F)F)nc(NCc2ccc(F)cc2)n1,2,.,.,.,0
Cc1cc(S(=O)(=O)Nc2cccc(O)c2)c(C)s1,-1,.,.,.,-10
CCC(=O)N1CCNC(=O)C1CC(=O)Nc1ccc(C)c(Cl)c1 (stereo unspecified),0,i,i,i,10
CC1CCC(NC(=O)c2ccc(N3CCCC3=O)cc2)CC1 (stereo unspecified),-6,.,.,.,-2
CCOc1ccc(NC(=O)C2CCCN(S(=O)(=O)c3c(C)n[nH]c3C)C2)cc1 (stereo unspecified),4,.,.,.,4
CCOC(=O)N1CCC(NC(=O)CNS(=O)(=O)c2ccc(Br)s2)CC1,-1,.,.,.,-2
COc1ccc(-c2nc3c(c(SCC(=O)N4CCOCC4)n2)COC(C)(C)C3)cc1,8,i,i,i,8
Cc1ccc2c(c1)NC(=O)C(CC(=O)NCCCN1CCc3ccccc3C1)O2 (stereo unspecified),4,.,.,.,2
Cc1ccc(C)c(C(=O)CC2(O)C(=O)Nc3ccccc32)c1 (stereo unspecified),-4,i,i,i,1
Cn1nc(-c2ccc(Cl)cc2)c2cc(C(=O)NCCCN3CCCC3)sc21,1,.,.,.,-1
CCOC(=O)c1cccc(NC(=O)CSc2nnc(C3CCCCC3)n2C)c1,-7,i,i,i,-1
CCc1ccc(N2CC(C(=O)OCC(=O)NC3CCS(=O)(=O)C3)CC2=O)cc1 (stereo unspecified),-2,i,i,i,6
Cc1nc(NCCNC(=O)c2ccco2)c2c(C)c(C)sc2n1,-2,i,i,i,-1
CC(=O)c1ccc(OCC(O)CN2CCC(C)CC2)cc1 (stereo unspecified),-4,.,.,.,1
Cc1ccc(-c2ccc(=O)n(CCC(=O)NCCN3CCCCC3C)n2)cc1 (stereo unspecified),-5,i,i,i,3
COc1ccc(S(=O)(=O)N2CCCN(CC(=O)Nc3ccc4c(c3)OCO4)CC2)cc1,22,.,.,.,12
CN1CSC2=C(C#N)C(c3cccc(OCc4ccccc4)c3)CC(=O)N2C1 (stereo unspecified),1,.,.,.,1
COc1ccc(C(=O)N(CN2CCCC2=O)c2ccc(C)cc2)cc1,23,.,.,.,-4
Cc1ccc(Cn2ccc(NC(=O)c3cc(-c4ccc(Br)cc4)on3)n2)cc1,-8,.,.,.,-6
CC(C)(C)n1ncc2c(=O)n(CC(=O)Nc3ccccc3)cnc21,-2,.,.,.,1
CCCOc1ccc(/C(O)=C2/C(=O)C(=O)N(CCN(C)C)C2c2ccc(OC)c(OC)c2)cc1 (stereo unspecified),-5,.,.,.,-1
COc1ccc(C(CNC(=O)c2cc(C)oc2C)N2CCOCC2)cc1 (stereo unspecified),1,i,i,i,-2
CCSC(SCC)[C@H](O)[C@@H](O)[C@H](O)[C@H](O)CO,9,i,i,i,-1
N#Cc1cn(CC(=O)N2CCCC2)c2ccccc12,4,i,i,i,2
COc1ccccc1N1CCN(C(c2cccs2)C(C)NC(=O)c2cccs2)CC1 (stereo unspecified),1,.,.,.,-2
O=C(O)CCC(=O)N1CCc2cc(S(=O)(=O)NCc3cccs3)ccc21,-2,.,.,.,1
CCOc1ccc(C(C)=O)cc1COc1ccc(-n2cnnn2)cc1,-7,i,i,i,-6
COc1ccc(N(CC(=O)NCc2cccs2)S(=O)(=O)c2c(C)nn(C)c2C)cc1,6,.,.,.,-2
CC(C)C(=O)Nc1c(C(=O)c2ccc(F)cc2)oc2ccccc12,0,.,.,.,1
CC(=O)Nc1cccc(NC(=O)CSc2nnc(Cc3cccn3C)n2-c2ccc(F)cc2)c1,8,.,.,.,13
Cc1ccc(C2CC(c3ccc(F)cc3)Nc3nc(N)nn32)cc1 (stereo unspecified),-2,.,.,.,2
Cn1c(Cn2c(=O)sc3ccccc32)nnc1SCC(=O)N1CCOCC1,-2,.,.,.,-3
O=C(Nc1cccnc1)c1ccc2snnc2c1,2,.,.,.,0
O=c1oc2ccc(Br)cc2cc1-c1nc2ccccc2o1,5,.,.,.,0
Cn1c(/C=N/n2cnnc2)nc2ccccc21,2,i,i,i,3
O=C1C(=O)N(CCN2CCOCC2)C(c2ccncc2)/C1=C(/O)c1ccc2c(c1)OCO2 (stereo unspecified),-9,.,.,.,-1
CC(=O)c1cc(-c2ccccc2)n(CC(=O)N2CCN(C3CCCC3)CC2)c1C,0,i,i,i,-1
COC(=O)C1=C(C)NC(=O)NC1c1ccc(OCC(=O)N2CCCCC2)cc1 (stereo unspecified),3,.,.,.,0
CC(C)Cc1cc(C(=O)NCCc2ccccc2)no1,0,.,.,.,-5
N#CC1=C(N)n2c(s/c(=C\c3ccco3)c2=O)=C(C#N)C1c1ccco1 (stereo unspecified),-8,i,i,i,-4
CC(C)CC(NC(=O)C1CCCCC1)C(=O)NCc1ccccn1 (stereo unspecified),-10,.,.,.,-2
O=C(Nc1ccccc1C(=O)N1CCCC1)c1cccc(S(=O)(=O)N2CCCCC2)c1,-4,.,.,.,-5
CC(=O)C1C(c2cn(-c3ccccc3)nc2-c2cccs2)NC(=O)NC1(O)C(F)(F)F (stereo unspecified),2,.,.,.,-2
Cc1ccc2cc3cc(C(=O)NCCCN4CCc5ccccc5C4)oc3nc2c1,0,.,.,.,-5
COC(=O)C1=C(C(=O)c2ccc(C)cc2)C(c2ccc(OC)c(OC)c2)n2nnnc2N1 (stereo unspecified),-8,.,.,.,-17
O=C(Cc1coc(-c2ccc(F)cc2)n1)NCc1ccccc1,0,.,.,.,2
CCc1nn(CC(=O)NCCN2CCN(C)CC2)c(=O)c2cc3occc3n12,-4,.,.,.,16
COc1ccc(C(=O)N2CCN(S(=O)(=O)c3cc(Cl)ccc3OC)CC2)cc1,-3,i,i,i,6

Remaining list, next part:
SMILES,FPR binder,VCAM-1 up imaging,VCAM-1 imaging,VCAM-1 inhibition,FPRL1 binder
O=C(Nc1cnn(Cc2ccc(Cl)cc2Cl)c1)c1cc(-c2cccs2)on1,-4,.,.,.,0
COc1ccc(-c2nnc3sc(C(C)N4C(=O)c5ccccc5C4=O)nn23)cc1 (stereo unspecified),-6,i,i,i,0
COCCN(CC(=O)Nc1ccccc1C)S(=O)(=O)c1ccc(S(=O)(=O)N2CCCC2)cc1,-4,i,i,i,0
O=C(NCc1ccccc1)c1cnc2n(c1=O)CCS2,0,.,.,.,-1
O=C1CC(N2CCN(C3CCc4ccccc4C3)CC2)C(=O)N1c1ccccc1 (stereo unspecified),3,i,i,i,3
COc1ccccc1NC(=O)N(Cc1ccco1)Cc1cc2c(C)ccc(C)c2[nH]c1=O,0,i,i,i,-10
O=C(NCCN1CCC(Cc2ccccc2)CC1)C1CCCN(S(=O)(=O)c2cnc[nH]2)C1 (stereo unspecified),-6,.,.,.,-2
Cc1cccc(C(=O)N2CCN(Cc3ccc4c(c3)OCO4)CC2)c1,-1,.,.,.,-2
CCC(C)NC(=O)C(Cc1ccccc1)n1cccc1 (stereo unspecified),-1,.,.,.,0
CC1Cc2ccccc2N1C(=O)CCNS(=O)(=O)c1cccc2nsnc12 (stereo unspecified),-14,.,.,.,-3
COc1ccccc1NC(=O)CN1C(=O)C2(OCCCO2)c2ccccc21,1,.,.,.,-3
Cc1ccc(-c2noc(CCC(=O)NCCc3ccccc3Cl)n2)cc1,-2,i,i,i,1
CCOc1cc2[nH]c(=O)n(CCCCC(=O)NCc3ccco3)c(=O)c2cc1OCC,8,i,i,i,7
CCOC(=O)Cc1nnc(NC(=O)C(CC)Sc2nncn2C)s1 (stereo unspecified),1,.,.,.,5
CCOC(=O)Nc1cccc(Nc2ccccc2)c1,-6,.,.,.,0
CCOC(=O)C1CCN(S(=O)(=O)c2ccc(NC(=O)OC)cc2)CC1,-18,.,.,.,18
CC(=O)Nc1c(I)c(NC(C)=O)c(I)c(C(=O)O)c1I,-3,i,i,i,2
COc1ccc(C2NC(=O)c3n[nH]c(C)c32)c(OC)c1 (stereo unspecified),-2,.,.,.,-1
Cn1c(=O)c2cc(S(=O)(=O)NCCC(=O)Nc3ccc(Cl)cc3)ccc2n(C)c1=O,3,.,.,.,5
COc1ccc(C)cc1NC(=O)C1CCCCC1C(=O)O (stereo unspecified),32*,.,.,.,26
CCOC(=O)c1c(C2CCN(C(=O)OCC)CC2)nc2ccccn12,0,.,.,.,0
O=C(NC1CCCCCCC1)C1CCN(c2nc3ccccc3o2)CC1,13,i,i,i,0
COc1ccc(NC(=O)NCCCN2CCCC2=O)cc1,-4,.,.,.,3
Cn1cc(C(=O)N2CCN(C(=O)c3ccco3)CC2)c2c3ccccc3n(C)c2c1=O,-1,.,.,.,-1
COc1ccc(C2C(C(=O)c3ccco3)=C(O)C(=O)N2Cc2cccnc2)cc1OC (stereo unspecified),38*,.,.,.,28
O=C(C1CCCN(S(=O)(=O)c2cccnc2)C1)N1CCn2c1nc1ccccc12 (stereo unspecified),0,i,i,i,0
Cc1ccc(C)c(NS(=O)(=O)c2c(C)nn(C)c2C)c1,1,.,.,.,9
O=C1c2ccccc2C(=O)N1CCN1CCCCC1,4,i,i,i,4
O=C(O)C1CCCCN1S(=O)(=O)c1ccc(Cl)s1 (stereo unspecified),2,.,.,.,-4
COC(=O)c1nnn(CC(=O)Nc2ccc(C)c(F)c2)c1C(=O)OC,-15,.,.,.,6
CC1(C)CC(=O)C2=C(C1)N1CCCCC1CC2=O (stereo unspecified),0,.,.,.,5
O=C(Nc1ccc2c(c1)OCCO2)c1cnc2n(c1=O)CCS2,-5,i,i,i,-3
CC1=C(C(=O)Nc2ccccc2)C(c2cccs2)C(C#N)=C(SCC#N)N1 (stereo unspecified),-1,i,i,i,-2
O=C(c1cc2nc(-c3ccco3)cc(C(F)(F)F)n2n1)N1CCN(c2ccccn2)CC1,-13,i,i,i,-5
COc1ccccc1CNC(=O)N[C@@H](Cc1ccccc1)C(=O)O,-4,i,i,i,-2
O=C(CCn1c(=O)sc2ccccc21)Nc1ccon1,-6,.,.,.,-4
OCCNCCCCOc1ccccc1F,-3,i,i,i,4
O=C(CCNC(=O)Cn1ccc2ccccc2c1=O)NCCCN1CCN(c2ccc(F)cc2)CC1,-1,.,.,.,-8
O=C(NCC(=O)N1CCCC1)c1cccs1,-2,.,.,.,5
N#Cc1c(NCc2ccccc2)ccnc1NCc1cccnc1,-2,i,i,i,-4
Cc1ccccc1S(=O)(=O)Cc1ccc(C(=O)N2CCN(c3ncccn3)CC2)o1,5,.,.,.,9
Cc1ccc(S(=O)(=O)N2CCN(C(=O)CN3CCOCC3)C2)cc1,-7,.,.,.,-9
CCOCCCNC(=O)c1cc2sc(Cl)cc2n1CC,-4,i,i,i,-3
CC1CCCN(C(=O)CNC(=O)Cn2ccc3ccccc3c2=O)C1 (stereo unspecified),-2,.,.,.,5
O=C(C1CC1)N1CCc2cc(Br)cc(S(=O)(=O)NCc3ccco3)c21,-2,.,.,.,0
CCCS(=O)(=O)N1CCN(C(=O)c2cccs2)CC1,10,i,i,i,2
CC(=O)c1c(OC(=O)c2ccco2)c2ccccc2n1C,3,i,i,i,2

Random excerpt: six entries already listed
SMILES,FPR binder,VCAM-1 up imaging,VCAM-1 imaging,VCAM-1 inhibition,FPRL1 binder
Cc1ccc(C2CC(c3ccc(F)cc3)Nc3nc(N)nn32)cc1 (stereo unspecified),-2,.,.,.,2
CCOC(=O)c1cccc(NC(=O)CSc2nnc(C3CCCCC3)n2C)c1,-7,i,i,i,-1
O=C1C(=O)N(CCN2CCOCC2)C(c2ccncc2)/C1=C(/O)c1ccc2c(c1)OCO2 (stereo unspecified),-9,.,.,.,-1
CC(C)Cc1cc(C(=O)NCCc2ccccc2)no1,0,.,.,.,-5
Cc1cccc(C(=O)N2CCN(Cc3ccc4c(c3)OCO4)CC2)c1,-1,.,.,.,-2
O=C(Cc1coc(-c2ccc(F)cc2)n1)NCc1ccccc1,0,.,.,.,2
